Screening data from PubChem.
SARS PLP yeast: SARS-CoV PLP inhibition in yeast. S. cerevisiae expressing SARS-CoV PLpro, growth rescue; control for the full effect not named in the record. Potency, µM (top dose mostly 32.9 µM), inactives show at the top dose activity, positive = growth rescue. 0.19% of 330,000 active. AID 485353; note: 0% is about no effect; nearly all actives have a fitted effect of over 55% in size; growth read by luminescence after 48 h
LASV entry inh: blocks Lassa virus binding to or entry into cells; Lassa virus pseudotype entry inhibition, cell reporter; control for the full effect not named in the record; Potency, µM (highest dose often 37.9 µM), for the others: at the top dose activity change, negative = inhibition, most hits filed as inhibitors; 1.2% of 300,000 active; active means well fitted inhibition curve with a large enough effect; inconclusive means small, poorly fitted or top-dose-only effect, or effect the other way; inactive means flat fitted curve, though single readings scatter; tested in HEK293 cells; note: % is set by controls: 0 for no effect and ±100 for the full control effect; nearly all actives have a fitted effect of over 50% in size; luciferase read-out
StopGo reporter: lowers the luciferase signal of an FMDV 2A StopGo reporter; human cells with a luciferase reporter of 2A StopGo recoding; control for the full effect not named in the record; Potency, µM (titrated, usually from 57.9 µM), without a hit: at the highest dose signal change, negative = less light; 1.2% of 410,000 active; active = well fitted falling curve with a large enough effect; inconclusive = small, poorly fitted or top-dose-only effect; inactive = no such curve, though single readings can be large or run the other way; tested in HEK293T cells; note: % is set by controls: 0 for no effect and ±100 for the full control effect; nearly all actives have a fitted effect of over 45% in size; luciferase light after 4 h
Cruzain inh noDet: inhibitors of Trypanosoma cruzi cruzain without detergent; P25779; purified cruzain, Z-FR-AMC fluorescence, no detergent; Potency, µM, for the others: max response, negative = inhibition, usual class: inhibitors; 2.3% of 200,000 active; active = well fitted curve in the direction sought with a large enough effect; inconclusive = small, poorly fitted or top-dose-only effect, or another doubt; inactive = no such curve, though single readings can be large; an effect the other way counts as inactive or inconclusive;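 note: plate controls were enzyme without inhibitor for no effect and buffer without enzyme for full effect; nearly all actives have a fitted effect of over 40% in size; top concentration of the series not given in the record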
Target sequence (P25779 123-467 limits assumed): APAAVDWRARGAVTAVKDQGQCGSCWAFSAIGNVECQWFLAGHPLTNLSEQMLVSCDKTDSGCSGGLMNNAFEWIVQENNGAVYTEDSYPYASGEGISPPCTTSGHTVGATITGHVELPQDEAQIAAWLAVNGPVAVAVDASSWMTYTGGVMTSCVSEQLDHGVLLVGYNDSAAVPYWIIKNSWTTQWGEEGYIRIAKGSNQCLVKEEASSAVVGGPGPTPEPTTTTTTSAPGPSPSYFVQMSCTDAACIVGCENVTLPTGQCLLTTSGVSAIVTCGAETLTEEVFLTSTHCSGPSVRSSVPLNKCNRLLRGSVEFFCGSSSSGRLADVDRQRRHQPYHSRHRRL
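Detergent-free condition (0.00005% Triton X-100) in acetate buffer pH 5.5 with DTT. 1.5 nM enzyme and compound were pre-mixed 15 min, then 2 uM Z-FR-AMC substrate added; reaction progress from fluorescence change between first and third reads (60 s).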
Cruzain inh Det: cruzain (T. cruzi) inhibition with detergent; 0.43% of 200,000 active; purified cruzain, Z-FR-AMC fluorescence, 0.01% Triton; AID 1478; Potency, µM, inactives show max response, negative = inhibition, actives largely listed as inhibitors; active = well fitted curve in the direction sought with a large enough effect; inconclusive = small, poorly fitted or top-dose-only effect, or another doubt; inactive = no such curve, though single readings can be large; an effect the other way counts as inactive or inconclusive;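 note: plate controls were neutral wells for no effect and buffer without enzyme for full effect; nearly all actives have a fitted effect of over 40% in size; top concentration of the series not given in the record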
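Compounds were screened in titration against cruzain (1.5 nM) with 0.01% Triton X-100 to counter colloidal aggregation. Activity was the AMC fluorescence increase over 60 s after adding 2 uM Z-FR-AMC at pH 5.5.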
NS1 inh: inhibitors of influenza NS1 protein function; Potency, µM (doses to about 46.1 µM), inactives show at the highest dose activity, positive = more growth; S. cerevisiae slowed by influenza A NS1, growth recovery by OD600; 0.4% of 270,000 active; note: actives are rising curves; nearly all actives have a fitted effect of over 50% in size
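A cell-based growth assay was used: compounds that relieve NS1-induced slow growth of budding yeast raise OD600. Assay medium was yeast nitrogen base with ammonium sulphate and -URA supplement, pH 6.0, with 2% galactose.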
MARV entry inh: blocks Marburg virus binding to or entry into cells; Marburg virus pseudotyped entry inhibition, cell reporter; control for the full effect not named in the record; about a third of the inactives were read at about 46 µM; Potency, µM (highest dose often 37.8 µM), without a hit: top-dose activity change, negative = inhibition, actives largely listed as inhibitors; 1.8% of 300,000 active; AID 540276; active = well fitted inhibition curve with a large enough effect; inconclusive = small, poorly fitted or top-dose-only effect, or effect the other way; inactive = flat fitted curve, though single readings scatter; tested in HEK293 cells; about a fifth of its hits are not listed in these tables; note: % is set by controls: 0 for no effect and ±100 for the full control effect; luciferase read-out
RE007 growth inh: less growth of the S. pombe RE007 Vpr strain; S. pombe RE007 Vpr strain, BacTiter-Glo ATP luminescence, 24 h; control for the full effect not named in the record; Potency, µM (top dose mostly 92.2 µM), for inactives: top-dose activity change, negative = less growth; 0.21% of 360,000 active; active = well fitted falling curve with a large enough effect; inconclusive = small, poorly fitted or top-dose-only effect; inactive = no such curve, though single readings can be large or run the other way;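 note: % is set by controls: 0 for no effect and ±100 for the full control effect; nearly all actives have a fitted effect of over 50% in size; the assay follows cell death caused by Vpr and the record does not say whether a fall means rescue or toxicity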
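Fission yeast strain RE007, carrying one chromosomally integrated HIV-1 vpr copy, was seeded at OD 0.01 in PMG+AL medium with 23 nL pinned compound. After 24 h at 30 °C and 99% humidity, viability was read by BacTiter-Glo luminescence.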
An asterisk follows results filed as active; u = inconclusive; x = not tested or not shown; & = joins results of further samples; [ ] = another dose, or the depositor's remark. Unless noted, calls come from the whole dose curve; as a rule, active means well fitted rising curve with a large enough effect; inconclusive means small, poorly fitted or top-dose-only effect; inactive means no such curve, though single readings can be large or run the other way. Potency is the fitted concentration of half-maximal effect.

| entry | molecule | LASV entry inh | Cruzain inh Det | SARS PLP yeast | Cruzain inh noDet | RE007 growth inh | MARV entry inh | StopGo reporter | NS1 inh |
| --- | --- | --- | --- | --- | --- | --- | --- | --- | --- |
| 1 | O=C(Nc1cccc(S(=O)(=O)NC2=NCCC2)c1)c1ccc(C(F)(F)F)cc1 | 0% | x | -6% | x | -3% | -15% | -24% | x |
| 2 | CC(=O)NC(Cc1ccc(C)cc1)C(=O)NC1CCN(C(=O)NCc2ccccc2)CC1 (stereo not given) | 13% | x | 1% | x | -4% | -2%[46.1 µM] | -2% | 1% |
| 3 | c1ccn(CCc2ccncc2)c1 | 0%[46.1 µM] | x | x | x | 0% | -1%[46.1 µM] | 34%[activator] | x |
| 4 | COc1ccc(-c2nnc(NC(=O)C(C)C)s2)c(OC)c1 | x | -1.0% | 8% | -15% | -6% | x | 33%[activator] | 4% |
| 5 | O=C(O)C/C(=C\c1ccc(N2CCOCC2)c([N+](=O)[O-])c1)c1nc2ccccc2s1 | x | x | 0% | x | -9% | x | -7% | 11% |
| 6 | COc1ccc(NC(=O)c2ccccc2O)c(OC)c1 | 6% | -1.9% | -33% | -2% | 6% | -30% | 59%[activator] | -270% |
| 7 | O=[N+]([O-])c1nn(-c2ccc3c(c2)OCCO3)n(O)c1=NC1CCCC1 | 14% | 0.3% | 15% | 0% | 10% | 7% | 21% | -2% |
| 8 | CCSc1ccc(-c2nn(-c3ccccc3)cc2/C=C(/C#N)C(=O)NCCCOC)cc1 | -27% | -2.8% | 9% | 23% | 17% | -26% | -6% | 0% |
| 9 | O=C1c2ccccc2C(=O)N1SC1CCCCC1 | -6% | 14µM* | -32% | 6.3µM* | 45µM* | 2% | u | -71% |
| 10 | COc1cccc(C(=O)CSc2nnc(CNS(C)(=O)=O)n2-c2ccc(C)cc2)c1 | 0% | 2.3% | -3% | u | -9% | 4% | -24% | -9% |
| 11 | COC(=O)c1ccc(CNC(=O)COC(=O)CCC2CCCC2)cc1 | 5% | -5.5% | 25% | 5% | 3% | -2% | -13% | 6% |
| 12 | O=C(CSCc1ccc(Cl)cc1)N/N=C/c1ccccc1 | -5% | -8.0% | 0% | -3% | 47% | 5% | -1% | -8% |
| 13 | CC(=O)c1ccc(NC(=O)C(C)OC(=O)C2CC(=O)N(c3ccc4c(c3)OCCO4)C2)cc1 (stereo not given) | 4% | x | -10% | x | -27% | u | -13% | -6% |
| 14 | CC(C)(C)c1ccc(OCCCC(=O)Nc2cccc(S(=O)(=O)N3CCOCC3)c2)cc1 | u | x | 4% | x | 6% | u | u | x |
| 15 | CCN(CC)CCn1c(=N)n(CC(O)c2ccc(OC)c(OC)c2)c2ccccc21 (stereo not given) | x | x | 0% | x | 11% | x | -17% | 0% |
| 16 | C=CCn1c2ccccc2c2nnc(SCc3[nH]c(=O)[nH]c3C(=O)CCCCC(=O)OCC)nc21 | u | u | 1% | -3% | -7% | -23% | 0% | 0% |
| 17 | O=C(c1ccc(Cl)cc1Cl)N1CCN(c2ccc(N3CCOCC3)nn2)CC1 | -4% | x | 8% | x | u | -23% | -19% | x |
| 18 | Cc1nnc(SCC(=O)Nc2ncc3c(n2)CC(c2ccccc2)CC3=O)s1 (stereo not given) | 13% | 2.9% | -3% | 7% | 9% | -6% | 2% | 6% |
| 19 | O=C(c1cccc(Cl)c1)N1CCC2(CC1)NCCc1[nH]cnc12 | x | x | 28% | x | -5% | x | -4% | 9% |
| 20 | O=C(OCc1ccc(Br)cc1F)c1cc2ccccc2oc1=O | 12%[46.1 µM] | x | -7% | x | -13% | -1%[46.1 µM] | 3% | -8% |

The list goes on.
| entry | molecule | LASV entry inh | Cruzain inh Det | SARS PLP yeast | Cruzain inh noDet | RE007 growth inh | MARV entry inh | StopGo reporter | NS1 inh |
| --- | --- | --- | --- | --- | --- | --- | --- | --- | --- |
| 21 | O=C(c1ccco1)N1CCN(C(=O)c2cnn3c2NC(c2cccs2)CC3C(F)(F)F)CC1 (stereo not given) | -2% | -0.3% | 5% | u | 4% | -1%&2% | -22% | -8% |
| 22 | CCCCNC(=O)c1onc(CSc2cccc(C)c2)c1C(=O)O | x | -0.4% | 1% | 8% | -1% | x | -29% | u |
| 23 | CCOC(=O)N1CCC(NC(=O)CSc2cc(=O)n(CC)c3ccccc23)CC1 | 2% | 0.6% | -4% | -1% | 8% | 11% | -18% | -2% |
| 24 | CCOC(=O)c1ccc(S(=O)(=O)N2CCC(C(=O)Nc3nnc(C)o3)CC2)cc1 | 1% | x | -3% | x | -1% | 14% | -18% | x |
| 25 | CCC(=O)N1CCCc2cc(S(=O)(=O)CCC(=O)Nc3ccccc3C)ccc21 | 4%[46.1 µM] | x | 1% | x | 3% | -5%[46.1 µM] | -21% | 4% |
| 26 | Cc1ccc(NS(=O)(=O)c2ccc3nc(-c4ccccc4)[nH]c3c2)c(Br)c1 | 11%[46.1 µM] | 0.0% | x | -14% | x | 6%[46.1 µM] | 0% | x |
| 27 | CCN1CCN(Cc2nc3c(c(=O)n(C)c(=O)n3C)n2CCc2ccccc2)CC1 | -6% | -0.1% | 6% | 0% | -19% | -7% | -1% | 6% |
| 28 | CCOC(=O)c1c(C)nc2sc3c(=O)n(-c4ccc(OC)cc4)nnc3c2c1-c1ccc(OC)cc1 | u | -1.8% | 2% | -3% | -3% | -28% | -13% | u |
| 29 | O=C(NCCCNC(=O)c1ccco1)c1ccco1 | 18% | 4.9% | 11% | 4% | 1% | 17% | 16% | 20% |
| 30 | CC(C)CCN(C(=O)C1=COCCO1)c1c(N)n(Cc2ccccc2)c(=O)[nH]c1=O | -6% | x | -4% | x | -4% | u | 3% | x |
| 31 | Nc1nonc1-n1nnc(C(=O)N/N=C/c2ccccn2)c1CNc1ccccc1 | x | x | -4% | x | 10% | x | -15% | -6% |
| 32 | COc1ccc(Cl)cc1CC=NNC(=O)c1ccncc1 | 1%[46.1 µM] | x | x | x | -5% | 20% | -16% | x |
| 33 | NC(=O)c1c(NC(=O)c2ccccc2Cl)sc2c1CCC2 | x | x | -3% | x | 18% | x | 52%[activator] | -7% |
| 34 | C[C@@H]1NC(=O)c2cc([N+](=O)[O-])cc(I)c2OCC[C@@H](C(N)=O)NC(=O)[C@H](CCC(=O)O)NC1=O | -6% | -6.8% | -7% | u | x | 3% | x | 17% |
| 35 | O=C(c1ccccc1[N+](=O)[O-])N1CCCC(C(=O)N2CCCCCC2)C1 (stereo not given) | 9%[46.1 µM] | x | u | x | -17% | -1%[46.1 µM] | -5% | -4% |
| 36 | CN(C)CCNC(=O)c1onc(CSc2ccc(F)cc2)c1C(=O)NCCN(C)C | x | x | -4% | x | 0% | x | 0% | 19% |
| 37 | O=C(c1cc(COc2ccc(F)c(F)c2)on1)N1CCN(C2CCCCC2)C(=O)C1 | x | x | -2% | x | -18% | x | 1% | -41% |
| 38 | NS(=O)(=O)c1ccc(CCNc2cc(=O)n(Cc3ccc(F)cc3)c(=O)[nH]2)cc1 | -15% | -2.0% | 7% | -5% | -11% | 14% | -6% | u |
| 39 | CC(/C=N\NC(=O)c1cc(C)oc1C)=C\c1ccccc1 | -1% | -2.3% | -37% | -4% | -23% | 28% | 14% | -10% |
| 40 | CCOC(=O)c1c(NC(=O)CSc2nnc(-c3ccc(Cl)cc3)o2)sc2c1CCC2 | 24% | x | x | x | -1% | 13%[46.1 µM] | 1% | x |

Next structures:
| entry | molecule | LASV entry inh | Cruzain inh Det | SARS PLP yeast | Cruzain inh noDet | RE007 growth inh | MARV entry inh | StopGo reporter | NS1 inh |
| --- | --- | --- | --- | --- | --- | --- | --- | --- | --- |
| 41 | CCCCCN(C(=O)CCC(=O)OCc1ccccc1C(F)(F)F)c1c(N)n(CCCC)c(=O)[nH]c1=O | -12% | x | -3% | x | -17% | u | -12% | 16% |
| 42 | C=CCn1c(SCC(=O)NC2CCCCC2)nnc1-c1ccccn1 | -3% | x | 1% | x | 2% | 11% | -12% | 10% |
| 43 | Cc1nn2c3ccccc3nc2n(C)c1=O | 3% | 4.8% | -1% | 7% | -3% | 18% | -23% | -2% |
| 44 | NC(=O)CC(NC(=O)c1ccccc1)c1ccc(N2CCCCCC2)c([N+](=O)[O-])c1 (stereo not given) | x | x | 1% | x | 11% | x | -9% | 19% |
| 45 | CC(=O)CC(=O)Nc1ccccc1NC(C)=O | 0% | -20% | -1% | -1% | -8% | 11% | -17% | 6% |
| 46 | Cc1cn(CC(=O)c2ccccc2)c2ccccc12 | x | x | -2% | x | -10% | x | -4% | 20% |
| 47 | COc1ccc(CNC(=O)CN(c2ccc(C)cc2)S(=O)(=O)c2c(C)noc2C)cc1 | -6%&-8%[46.1 µM] | -0.8% | -10% | -5% | -10% | -22%&-2%[46.1 µM] | -16%&-7% | -4% |
| 48 | CCN1CCN(CC(O)COCC2COc3ccccc3O2)CC1 (stereo not given) | 0% | x | 3% | x | -10% | 7%[46.1 µM] | 4% | x |
| 49 | CCc1ccc(OCCNC(=O)c2ccccc2SCc2ccc(F)cc2)cc1 | u | -6.2% | 2% | -8% | 1% | u | u | 8% |
| 50 | Cn1c(CSCCOc2ccccc2)n[nH]c1=S | 0%[46.1 µM] | x | 1% | x | -5% | 16%[46.1 µM] | -19% | 0% |
| 51 | Cc1cccc(N2CCN(C(=O)c3c(C)oc4ncnc(N5CCCCC5)c34)CC2)c1C | -13%[46.1 µM] | -5.0% | x | 5% | x | x | -20% | x |
| 52 | O=C(Nc1nnc(-c2cccnc2)s1)c1cccs1 | x | x | 0% | x | -6% | x | 40%[activator] | -33% |
